Screens deposited in PubChem BioAssay by National Center for Advancing Translational Sciences (NCATS).
Rango-impB inh: prevents formation of the Rango-importin beta complex. 340,000 compounds, 0.031% hits. Rango CFP/YFP FRET sensor + importin beta, 45 min. Potency, µM (titrated, usually from 92.2 µM), without a hit: top-dose inhibition of complex formation; active = rising FRET ratio curve, often small or poorly fitted; inconclusive = mostly compound fluorescence or quenching in the first reads; inactive = flat curves in all reads;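 note: potency is the fitted concentration of half-maximal effect; 0% = DMSO wells and 100% = buffer wells lacking importin beta; nearly all actives have a fitted effect of over 15% in size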
Target sequence (Q14974 whole entry, looked up): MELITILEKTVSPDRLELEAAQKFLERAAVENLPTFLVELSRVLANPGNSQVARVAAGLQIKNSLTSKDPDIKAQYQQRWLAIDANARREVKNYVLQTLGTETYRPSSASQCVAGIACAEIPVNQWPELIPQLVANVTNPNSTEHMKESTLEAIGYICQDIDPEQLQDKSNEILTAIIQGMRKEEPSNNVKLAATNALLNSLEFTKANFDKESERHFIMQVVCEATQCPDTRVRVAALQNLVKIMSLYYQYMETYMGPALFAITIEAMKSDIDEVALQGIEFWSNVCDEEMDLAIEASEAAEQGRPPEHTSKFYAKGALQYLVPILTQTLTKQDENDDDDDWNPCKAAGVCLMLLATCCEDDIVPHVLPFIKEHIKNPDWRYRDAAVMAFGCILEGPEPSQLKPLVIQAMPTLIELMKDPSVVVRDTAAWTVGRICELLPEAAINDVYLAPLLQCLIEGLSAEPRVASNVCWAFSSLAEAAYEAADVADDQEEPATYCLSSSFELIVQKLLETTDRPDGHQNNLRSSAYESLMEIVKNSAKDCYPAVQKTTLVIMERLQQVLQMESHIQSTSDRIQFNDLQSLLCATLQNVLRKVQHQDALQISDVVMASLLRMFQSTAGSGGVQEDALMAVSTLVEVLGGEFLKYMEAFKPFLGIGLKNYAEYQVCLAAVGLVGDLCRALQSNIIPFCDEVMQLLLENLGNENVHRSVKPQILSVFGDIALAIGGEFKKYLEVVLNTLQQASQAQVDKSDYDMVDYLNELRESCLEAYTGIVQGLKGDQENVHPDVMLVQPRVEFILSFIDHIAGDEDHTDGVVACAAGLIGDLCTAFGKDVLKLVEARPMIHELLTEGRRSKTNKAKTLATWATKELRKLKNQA
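FRET biosensor Rango (snurportin 1 IBB between N-terminal EYFP and C-terminal Cerulean), 50 nM in PBS/1 mM DTT/0.02% Tween-20/0.1% BSA, preincubated 5 min RT with compound; 0.125 microM importin beta added, 45 min RT, CFP/YFP FRET ratio read.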
Rango dissoc inh: prevents RanGTP from dissociating the Rango-importin beta complex; O95149+P62826; Biochemical FRET Rango-importin beta, RanGTP-induced dissociation; Potency, µM (highest dose often 46.1 µM), inactives show at the highest dose activity change, negative = inhibition; 340,000 compounds, 0.071% hits; active means falling FRET ratio curve, often poorly fitted, with flat reads before Ran was added; inconclusive means other falling curves, or compound fluorescence or quenching; inactive means flat or rising ratio curve;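 note: potency is the fitted concentration of half-maximal effect; % of control where 0% means no effect; nearly all actives have a fitted effect of over 45% in size; -100% = wells without RanGTP and RCC1; the record marks most hits as doubtful in a second field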
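Rango/importin beta premix (0.1/0.25 uM final), PBS + 1 mM DTT + 0.02% Tween-20 + 0.1% BSA; cpd 5 min RT; FRET pre-read; + RanGTP-RCC1 (0.6 uM Ran, 2 mM GTP, 0.2 uM RCC1); 45 min RT; FRET post-read, ex 430, em 486/530 nm.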
GLA inh pH 4.5: blocks human alpha-galactosidase A at pH 4.5; purified enzyme, 4-MU-alpha-Gal fluorescence, pH 4.5; activity change, negative = inhibition, % at 105 µM; 230,000 tested, under 10 active; AID 1467; inconclusive = small, poorly fitted or top-dose-only inhibition, or a rising curve; inactive = flat fitted curve, though single readings scatter; no compound was filed as active;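 note: 0% = full activity with enzyme and -100% = basal without enzyme; dose as in the result columns while the protocol names 77 µM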
miR-21 reporter: raises the signal of a miR-21 reporter | HeLa miR-21 FLuc reporter, luciferase, 48 h | Potency, µM (titrated, usually from 38.3 µM), inactives show at the highest dose reporter change, positive = more light | 340,000 tested, under 10 active; active = well fitted rising curve with a large enough effect; inconclusive = small, poorly fitted or top-dose-only effect; inactive = no such curve, though single readings can be large or run the other way;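 note: % of control where 0% means no effect; miR-21 action dims this reporter so a rising signal means less miR-21 action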
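Luminescence from a firefly luciferase reporter carrying a miR-21 binding site downstream, stably expressed under a CMV promoter in HeLa cells that make miR-21 endogenously, reports miRNA modulation after 48 h compound exposure up to approximately 40uM final.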
* hit, by the source's call; ? = inconclusive; . = no result given; & = joins results of further samples. This is a subset; count on the stated rates, not on these rows.

compound | miR-21 reporter | GLA inh pH 4.5 | Rango-impB inh | Rango dissoc inh
CSC1=NNC(c2ccc(C(C)(C)C)cc2)=NN1 | -41% | -2 | -0.2% | 9%
CN1CCN(C2CCN(S(=O)(=O)c3ccc(C(C)(C)C)cc3)CC2)CC1 | -4% | . | -2.2% | 0%
Cc1cc(=O)[nH]c(SCc2cccc3cccnc23)n1 | -22% | -4 | 0.1% | 3%
CCOC(=O)C1(Cc2ccccc2Cl)CCN(C(=O)CCn2ccnc2C)CC1 | -48% | 1 | -1.7% | -2%
O=c1c2c(-c3ccc([N+](=O)[O-])cc3)csc2nc2n1CCCCC2 | -3% | -2 | 5.4% | 11%
Cn1c(CSCc2ccc(F)cc2)nnc1SCC(=O)N1CCN(c2ccccc2)CC1 | 16% | -3 | -0.2% | 9%
COc1ccc(C(=O)NCCN2CCOCC2)cc1S(=O)(=O)Nc1ccc(C)cc1 | . | . | 5.2% | 18%
CC(C)=C1C2CCC1C1C(=O)N(c3nc(-c4ccc(C(C)C)cc4)c(C)s3)C(=O)C21 (stereo unspecified) | 10% | -1 | 3.1% | -1%
O=C(NC(Cc1ccc(O)cc1)C(=O)N=Nc1c(O)[nH]c2ccccc12)c1ccccc1 (stereo unspecified) | . | . | -1.4% | -9%
COCCCNC(=O)CN(c1cccc(Cl)c1)S(C)(=O)=O | -6% | -1 | -3.6% | -1%
CCC(C)(C)C1CCc2[nH]nc(C(=O)NCc3ccc(OC)cc3)c2C1 (stereo unspecified) | . | . | -2.8% | 21%
CSCCC(N=C1NS(=O)(=O)c2ccccc21)C(=O)NCCc1ccccc1 (stereo unspecified) | -2% | . | -3.3% | 2%
CC(NC(=O)CN1CCN(c2ccccc2F)CC1)c1ccccc1 (stereo unspecified) | 0% | . | -3.6% | 13%
Cn1c2ccccc2c(=O)c2c(=O)n(Cc3ccco3)c(-c3ccc(F)cc3)nc21 | -8% | 2 | -2.4% | 26%
CCNC(=O)COn1c(SCC(=O)NCC)nc2ccccc2c1=O | 3% | -14 | -1.5% | 4%
O=C(COC(=O)c1ccccc1SCC(=O)N1CCCC1)NCc1ccccc1 | . | . | 0.3% | 0%
COc1ccccc1NS(=O)(=O)c1ccc2oc(SCC(=O)N3CCNC3=O)nc2c1 | . | . | 1.7% | -20%
Cc1cc(-c2ccc(C)c(S(=O)(=O)NCC3CCN(Cc4ccc(F)cc4)CC3)c2)on1 | 9%&9% | . | 3.5% | 4%
C=CCN(CC=C)C(=S)Nc1ccccc1 | -2% | 2 | -1.4% | 3%
CC(C)c1nc(-c2c(N)n(C)c(=O)n(C)c2=O)sc1C(=O)C(C)(C)C | -2% | -1 | 1.1% | 15%
CC(NCC(=O)Nc1ccccc1C(=O)NC1CC1)c1ccco1 (stereo unspecified) | . | . | -0.7% | 2%
CC(NC(=O)CNC(=O)c1cccc(Cl)c1)c1ccccc1 (stereo unspecified) | 0% | . | -0.9% | -9%
Cc1c(NC(=O)/C(C#N)=C/c2ccc(-c3ccc(Cl)c(Cl)c3)o2)c(=O)n(-c2ccccc2)n1C | -9% | -15 | -1.2% | -4%
COc1ccc(-c2csc(NC(=O)COc3ccc(N(C)S(=O)(=O)c4ccc(C)cc4)cc3)n2)cc1 | 5% | -10 | -2.5% | 2%
Cc1ccccc1C1=NC(C(F)(F)F)(C(F)(F)F)c2c(n(C)c(=O)n(C)c2=O)N1 | -16% | 3 | -0.5% | 4%
N/C(=N\N=C\c1ccc2c(c1)OCO2)c1nonc1N | -28% | -1 | -0.7% | -16%
N#CC1(NC(=O)COC(=O)CNC(=O)c2sc3ccccc3c2Cl)CCCCC1 | . | . | -4.7% | 4%
O=C(c1ccc2nc(-c3ccco3)c(-c3ccco3)nc2c1)N1CCN(c2ncccn2)CC1 | 10% | 12 | ? | ?
Cc1nc2ncnn2c(C)c1CCC(=O)NCCC1=CCCCC1 | -6% | 2 | -1.5% | -11%
C(C#CCCCCCCCCC[n+]1ccccc1)#CCCCCCCCCC[n+]1ccccc1 | ? | . | 2.8%&9.9% | 12%&1%
FC(F)(F)c1cc(C(F)(F)F)c2ccc(N3CCN(c4ccc(Cl)cc4)CC3)nc2n1 | -2% | 6 | -0.9% | 0%
Cc1nonc1N1CCN(Cc2cn[nH]c2-c2ccc(F)cc2F)CC1 | -1% | 6 | -1.2% | 3%
O=C(N/N=C/c1ccc([N+](=O)[O-])cc1)c1ccc2nc[nH]c2c1 | 6% | -8 | 2.8% | -14%
COc1ccc(C2(C(=O)NCC3CCCO3)CCOCC2)cc1 (stereo unspecified) | 0% | -5 | 4.7% | -15%
CC(=O)c1cccc(NC(=O)C(C)OC(=O)CCN=C2NS(=O)(=O)c3ccccc32)c1 (stereo unspecified) | . | . | ? | -5%
CN1CCCC(OC(=O)c2cccc(S(=O)(=O)N3CCCCCC3)c2)C1 (stereo unspecified) | -3% | -19 | 1.3% | 14%
CCCn1nc(C(=O)NNC(=O)c2ccc(C)c(C)c2)c2ccccc2c1=O | . | . | 4.6% | -10%
COc1ccc(OCC(=O)Nc2c(C(=O)N3CCN(C)CC3)oc3ccccc23)cc1 | -3% | . | -5.7% | -2%
C=CCn1c(SCc2c(C)noc2C)nc2sc(C)c(C)c2c1=O | 19% | 1 | -0.7% | 8%
C=CCN(c1nc(C)cc(OC)n1)S(=O)(=O)c1ccccc1 | -2% | . | ? | -9%
O=C(NC(NNc1ccc([N+](=O)[O-])cc1)(C(F)(F)F)C(F)(F)F)c1ccc(Cl)cc1 | 14% | -5 | 1.5% | -12%
C=CCc1cccc2cc(C(=O)N3CCOCC3)c(=O)oc12 | -4% | . | -0.1% | 1%
COC(=O)C1SCC2C(=O)N(Cc3ccc(F)cc3)CC(=O)N21 (stereo unspecified) | 1% | -6 | 0.8% | 1%
CC(=O)N1c2c(cc(Br)cc2S(=O)(=O)NCC2COc3ccccc3O2)CC1C (stereo unspecified) | 12% | 0 | -1.0% | -8%
CCCCCCC(=O)NCC(=O)OCC(=O)c1ccccc1 | -3% | 7 | 6.5% | -1%
COc1cc(CNc2ccc(CNc3ncn[nH]3)cc2)ccc1OCC(=O)NC(C)(C)C | 27% | -4 | -2.2% | 1%
COc1ccc(NC2=C(C(C)=O)C(c3ccc(OC)cc3)C(C(C)=O)C(C)(O)C2)cc1 (stereo unspecified) | -4% | 3 | 3.8% | 22%
Cc1ccc(S(=O)(=O)N2CCN(Cc3cccnc3)CC2)cc1 | -3% | . | -0.2% | -9%
Cc1sc2ncnc(SC(C)C(=O)N3c4ccccc4Sc4ccccc43)c2c1C (stereo unspecified) | -3% | -13 | -5.6% | -6%
O=C(C1CCCN(S(=O)(=O)c2cccc3nonc23)C1)N1CCC(Cc2ccccc2)CC1 (stereo unspecified) | 7% | 7 | -4.0% | 5%

Quoted at random: 2 entries already listed
compound | miR-21 reporter | GLA inh pH 4.5 | Rango-impB inh | Rango dissoc inh
CC(=O)c1cccc(NC(=O)C(C)OC(=O)CCN=C2NS(=O)(=O)c3ccccc32)c1 (stereo unspecified) | . | . | ? | -5%
FC(F)(F)c1cc(C(F)(F)F)c2ccc(N3CCN(c4ccc(Cl)cc4)CC3)nc2n1 | -2% | 6 | -0.9% | 0%

(list continues)
compound | miR-21 reporter | GLA inh pH 4.5 | Rango-impB inh | Rango dissoc inh
Nc1nonc1-n1nnc(C(=O)N/N=C/c2ccc3c(c2)OCO3)c1CSc1ccccc1 | 2% | . | 1.1% | 9%
O=C(NNC(=O)c1cnccn1)c1ccc(Cl)cc1 | -9% | -10 | -0.2% | 4%
CC1CC(CN)CC(CO)C1 (stereo unspecified) | 0% | 5 | -0.4% | 6%
NC(=O)c1ccc(-c2c(-c3ccccc3)sc3ccccc23)cc1 | . | . | 1.4% | 1%
COc1ccccc1NC(=O)c1ccccc1NS(=O)(=O)N1CCCC1 | -3% | -5 | -2.1% | 17%
O=c1[nH]c(=O)c2[nH]c(=S)[nH]c2[nH]1 | . | . | ? | -20%
O=C(N/N=C/c1ccc(Br)s1)c1ccccn1 | -41% | 1 | 3.3% | 0%
Cc1csc2ncc(C(=O)NCCc3ccccc3)c(=O)n12 | -81% | 15 | 1.1% | 34%
C[C@@]12C(=O)N(CCc3c[nH]c4ccccc34)CC(=O)N1[C@H]1c3ccccc3OC[C@@H]1[C@@H]2c1ccccc1 | . | . | -0.5% | -5%
CC12CN(C(=O)c3ccccc3)C3(C#N)CC1CCC23C (stereo unspecified) | -8% | -1 | -0.6% | 17%
CCCCn1c(SCc2cc(=O)[nH]c3ccccc23)nc2c1c(=O)n(C)c(=O)n2C | -2% | -3 | . | .
CCC(C)n1c(/C=C/c2ccccc2)nc2ccccc21 (stereo unspecified) | -34% | -2 | -1.2% | -18%
O=C(NCc1ccccc1Cl)c1cc([N+](=O)[O-])ccc1Cl | 0% | 5 | -0.4% | 1%
CCN(CC(=O)Nc1c(F)cccc1F)C(=O)C1CCN(c2ncnc3sc(C)c(C)c23)CC1 | . | . | 6.2% | -6%
CCc1ccc(C(=O)N2CCN(S(=O)(=O)c3sc(C(=O)O)c(C)c3C(=O)O)CC2)cc1 | . | . | -1.2% | -12%
COc1ccccc1NS(=O)(=O)c1ccc(C)c(C(=O)N2CCN(c3ccc(O)cc3)CC2)c1 | . | . | 0.9% | 1%
CC1CC(C)CN(S(=O)(=O)c2ccc(NC(=O)CCN3C(=O)C4CC=CCC4C3=O)cc2)C1 (stereo unspecified) | . | . | -0.7% | 14%
CCc1nc(SCC(=O)NCc2ccco2)c2c(=O)n(C)c(=O)n(C)c2n1 | 3% | 7 | 1.9% | -4%
COc1ccc(OC)c(S(=O)(=O)NCc2cn3c(C)csc3n2)c1 | 5% | -2 | -1.1% | 0%
Cc1ccc(C(=O)Nc2ccccc2N2CCCCC2)cc1[N+](=O)[O-] | -1% | -7 | 6.9% | 13%
COCCn1c(SCC(=O)Nc2ccc(OC)cc2)nc2c(oc3ccccc32)c1=O | 0% | ? | . | .
N#C/C(=C/c1cccn1-c1cccc(C(=O)O)c1)c1ccc(F)cc1 | -5% | -22 | 0.1% | -12%
O=C(OC1CCCCC1)c1ccc(NC(=O)C2CCCCC2)cc1 | 10% | -5 | 3.8% | 5%
CCOC(=O)c1nn(-c2ccccc2)c(=O)cc1SC1CCCCC1 | 0% | 5 | 0.8% | -1%
O=C(Nc1ccc(Cl)cc1)c1csc(-c2ccccc2)n1 | -13% | -21 | -1.5% | 17%
O=C(Nc1c(C(=O)N2CCC(N3CCCCC3)CC2)oc2ccccc12)c1c(F)cccc1F | -1%&-21% | . | 5.2% | 22%
Cc1ccc(CN(C)C(=O)CCc2c[nH]c3ccccc23)o1 | -19% | . | 0.3% | 13%
COC(=O)c1ccc(CN2CCC(CO)(Cc3ccc(OC)cc3)CC2)cc1 | 11% | -5 | -2.7% | -10%
CN1CCCC(n2nc(Cc3ccc(Cl)cc3)c3ccccc3c2=O)CC1 (stereo unspecified) | . | -13 | 3.0% | -7%
COC(=O)c1ccccc1NC(=O)N1CCc2ccc(NC(=O)c3ccccn3)cc2C1 | -1% | . | 2.1% | 2%
Cc1ccc2[nH]c3c(NCCN4CCOCC4)ncnc3c2c1 | -50% | 0 | -2.7% | 14%
CCn1c2ccccc2c(=O)c2ccccc21 | -1% | -18 | ? | ?
O=C(Nc1nc2ccsc2c(=O)s1)c1ccc(F)cc1Cl | -52% | -6 | -0.8% | 7%
CN(CC(=O)NCc1ccco1)CC(=O)Nc1cc(S(C)(=O)=O)ccc1Cl | . | . | -3.1% | 3%
COc1ccc(C(=O)NCC(=O)OCC(=O)Nc2ccc(C)c(S(=O)(=O)N(C)C)c2)cc1OC | 6% | -23 | 1.2% | -9%
